V. cholerae QS: Vibrio cholerae quorum sensing activators, luminescence (AID 686977); V. cholerae quorum sensing reporter, luminescence, 6 h; higher luminescence means a stronger effect; most inactives read 0; one-dose luminescence at 50 µM unless noted; EC50 in µM for titrated hits; 9,400 tested, under 10 active;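 active = light above mean plus 3 SD and confirmed in a dose series; inconclusive = above that limit without a clear retest; inactive = below it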;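 note: raw light counts without normalisation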
* = called active by the depositor; [ ] = another dose, or the depositor's remark.

How did Fc1ccc(C(c2ccc(F)cc2)N2CCN(C/C=C/c3ccccc3)CC2)cc1 do in these assays?
V. cholerae QS: 0[10 µg/mL]

Results for CCCC(=O)NC(C)c1nc2ccccc2[nH]1 (stereo unspecified) ?
V. cholerae QS: 0

What do the screens show for `CCC(C)c1ccccc1NC(=O)C1CCCO1` (stereo unspecified)?
V. cholerae QS: 0

What do the screens show for `Cc1cc(N(C)C)c(C#N)c(N2CCCCC2)n1`?
V. cholerae QS: 0

What do the screens show for `COc1ccccc1-c1noc(-c2ccccc2C(=O)Nc2cccnc2)n1`?
V. cholerae QS: 0

How did CC(=O)Nc1c(-c2ccc(F)cc2)nc2ccccn12 do in these assays?
V. cholerae QS: 40

How did COc1ccc(NCc2nc3ccccc3n2CCOc2ccccc2)cc1 do in these assays?
V. cholerae QS: 40

How did CC1=C(C(=O)O)N2C(=O)[C@@H](NC(=O)[C@H](N)c3ccccc3)[C@H]2SC1 do in these assays?
V. cholerae QS: 0[10 µg/mL]

How did c1ccc2c3c([nH]c2c1)[C@H]1C2CCC([C@@H]4CCCN[C@H]24)N1CC3 (stereo partly specified) do in these assays?
V. cholerae QS: 0[10 µg/mL]

Results for CC(C)OP(=O)(c1ccc(N(C)C)cc1)C(O)c1c(Cl)cccc1Cl (stereo unspecified) ?
V. cholerae QS: 0

How did O=C1C(NS(=O)(=O)c2cccs2)=C(N2CCN(c3cccc(Cl)c3)CC2)C(=O)c2ccccc21 do in these assays?
V. cholerae QS: 0

Results for CC1CC(C)CN(C(=O)CSc2nnc(-c3ccc(Cl)cc3)o2)C1 (stereo unspecified) ?
V. cholerae QS: 0

How did COc1ccc2[nH]c(=O)c(CN(C(=O)c3ccco3)C3CCCCC3)cc2c1 do in these assays?
V. cholerae QS: 0

What do the screens show for `COC(=O)c1ccccc1NC(=O)COC(C)=O`?
V. cholerae QS: 0

How did COC(=O)C1=C(C(=O)OC)SC(=C2C(=S)C(C)(C)N(C(=O)C(C)C)c3ccccc32)S1 do in these assays?
V. cholerae QS: 0

Results for O=C(CSc1nc(O)c(Cc2ccccc2)c(=O)[nH]1)Nc1ccccc1 ?
V. cholerae QS: 40

What do the screens show for `C/C(=C(/CCO)SSCC1CCCO1)N(C=O)Cc1cnc(C)nc1N` (stereo unspecified)?
V. cholerae QS: 0[10 µg/mL]

What do the screens show for `CCCCc1ccc(CC2S/C(=C(\C#N)C(=O)N3CCOCC3)N(c3ccccc3)C2=O)cc1` (stereo unspecified)?
V. cholerae QS: 0

What do the screens show for `O=C(NCCc1c[nH]c2ccc(Cl)cc12)c1cccnc1`?
V. cholerae QS: 80

How did O=C(NCc1ccco1)C1CC(=O)N(c2ccc(F)cc2)C1 (stereo unspecified) do in these assays?
V. cholerae QS: 0

What do the screens show for `CC1CCCCN1S(=O)(=O)c1cccc2cccnc12` (stereo unspecified)?
V. cholerae QS: 0

How did COc1ccc2ccc(Oc3ncccn3)cc2c1 do in these assays?
V. cholerae QS: 200

What do the screens show for `CCOc1cc(C(=O)O/N=C(\N)c2ccc([N+](=O)[O-])cc2)cc(OCC)c1OCC`?
V. cholerae QS: 40

How did NC(=O)c1cc[n+](CC2=C(C(=O)[O-])N3C(=O)[C@@H](NC(=O)Cc4cccs4)[C@H]3SC2)cc1 do in these assays?
V. cholerae QS: 0[10 µg/mL]

What do the screens show for `Cc1nnc(SCCn2c(N(C)Cc3ccccc3)nc3c2c(=O)[nH]c(=O)n3C)s1`?
V. cholerae QS: 0

Results for CN(C)c1ccc(O)c2c1CC1CC3[C@@H](N(C)C)C(=O)C(C(N)=O)=C(O)[C@]3(O)C(=O)C1=C2O (stereo partly specified) ?
V. cholerae QS: 0[10 µg/mL]

How did CN(Cc1cccs1)C(=O)COc1cccc(-n2cnnn2)c1 do in these assays?
V. cholerae QS: 0

How did Fc1ccc(-c2nnc(NC3=NCCCCC3)o2)cc1 do in these assays?
V. cholerae QS: 40

What do the screens show for `CCOC(=O)C1=C(Cc2ccc(Cl)cc2)C(=O)c2ccccc2C1=O`?
V. cholerae QS: 0

How did O=C(CC1Oc2ccccc2NC1=O)NCCCN1CCCC1=O (stereo unspecified) do in these assays?
V. cholerae QS: 0

How did Fc1ccc(C2CC(c3ccccc3)Nc3ncnn32)cc1 (stereo unspecified) do in these assays?
V. cholerae QS: 0

How did CC(=O)NC(CCS(C)(=O)=O)C(=O)Nc1c(C)cccc1C (stereo unspecified) do in these assays?
V. cholerae QS: 0

How did O=C(O/N=C1/CCSc2ccccc21)c1ccccc1 do in these assays?
V. cholerae QS: 0

How did CSc1cccc(NC(=O)CN(c2cc(C)ccc2C)S(C)(=O)=O)c1 do in these assays?
V. cholerae QS: 0

What do the screens show for `Cc1cccc(-n2c(Cc3cc(=O)[nH]c(=O)[nH]3)nnc2SCC(=O)NCC2CCCO2)c1` (stereo unspecified)?
V. cholerae QS: 0

Results for CCN(CCNC(=O)CCCn1nc(C)n2c(cc3sccc32)c1=O)c1ccccc1 ?
V. cholerae QS: 0

How did COc1cc(C(=O)O)ccc1OC(C)=O do in these assays?
V. cholerae QS: 0

What do the screens show for `O=C(O)/C=C/c1ccc(O)c(O)c1`?
V. cholerae QS: 0[10 µg/mL]

How did O=C(CSc1nnc(-c2ccc(O)cc2)n1Cc1ccco1)N1CCc2ccccc2C1 do in these assays?
V. cholerae QS: 0

What do the screens show for `CC(C)c1c(CN(C)C(C)Cc2ccccc2)n(C)n(-c2ccccc2)c1=O` (stereo unspecified)?
V. cholerae QS: 0[10 µg/mL]

What do the screens show for `O=C1Cc2ccccc2C(=O)N1Cc1ccccc1`?
V. cholerae QS: 0

What do the screens show for `Cc1c(NC(=O)C(C)Sc2ccc3ccccc3n2)c(=O)n(-c2ccccc2)n1C` (stereo unspecified)?
V. cholerae QS: 40

What do the screens show for `Cc1cc(C)cc(N(C(=O)Cc2cccs2)C(C(=O)NC2CCCC2)c2ccc(C)o2)c1` (stereo unspecified)?
V. cholerae QS: inconclusive

Results for CCc1ccccc1NC(=O)CN(C)C(=O)CN1C(=O)NC2(CCCCCC2)C1=O ?
V. cholerae QS: 0

How did COC1CCCCC1NS(=O)(=O)c1ccc(Cl)cc1 (stereo unspecified) do in these assays?
V. cholerae QS: 40

What do the screens show for `O=C(O)COc1ccc(/C=N/NC(=O)C2CCCN2S(=O)(=O)c2ccc(Cl)cc2)cc1` (stereo unspecified)?
V. cholerae QS: 0

Results for O=C(Cc1nc2ccccc2[nH]1)NCc1ccco1 ?
V. cholerae QS: 0

How did Cc1nc2c(-c3ccc(F)cc3)c(C)nn2c(C)c1CCC(=O)N1CCN(c2ccccc2)CC1 do in these assays?
V. cholerae QS: 0

Results for COc1ccc(OC)c(NC(=O)c2cc(-c3ccc(C)cc3O)n[nH]2)c1 ?
V. cholerae QS: 0

How did CCC(=O)Nc1nnc(-c2ccc(OC)cc2)o1 do in these assays?
V. cholerae QS: 0

How did COc1ccccc1N1CCN(C(=O)c2cc3cc(Br)ccc3oc2=O)CC1 do in these assays?
V. cholerae QS: 0

Results for COCCNC(=O)C(C)N(c1ccc(Oc2ccccc2)cc1)S(C)(=O)=O (stereo unspecified) ?
V. cholerae QS: 0

How did COc1cccc(-c2nc(CS(=O)(=O)CC(=O)Nc3cc(C)ccc3C)c(C)o2)c1 do in these assays?
V. cholerae QS: 0

How did COc1ccc(Cl)cc1NC(=O)Nn1cnnc1 do in these assays?
V. cholerae QS: 240

How did CCCC[n+]1ccn(-c2nc3ccccc3nc2[N-]S(=O)(=O)c2ccc(C)cc2)c1 do in these assays?
V. cholerae QS: 0

What do the screens show for `CC(C)C(NC(=O)OCc1ccccc1)C(=O)OCC(=O)N1C(C)CCCC1C` (stereo unspecified)?
V. cholerae QS: 0

What do the screens show for `O=C(NCCc1ccccc1)C1CCN(C(=O)c2sccc2-n2cccc2)CC1`?
V. cholerae QS: 0

What do the screens show for `O=C(CSc1nccn1-c1cccc(Cl)c1)Nc1ccc2c(c1)OCCO2`?
V. cholerae QS: 0

What do the screens show for `Nc1ccccc1C(=O)c1ccccc1`?
V. cholerae QS: 0

What do the screens show for `C=CCNC(=S)NNC(=O)c1ccccc1`?
V. cholerae QS: 0

Taken from the entries so far for reference:
How did COc1cccc(-c2nc(CS(=O)(=O)CC(=O)Nc3cc(C)ccc3C)c(C)o2)c1 do in these assays?
V. cholerae QS: 0

How did COc1ccc(Cl)cc1NC(=O)Nn1cnnc1 do in these assays?
V. cholerae QS: 240

How did CCCC[n+]1ccn(-c2nc3ccccc3nc2[N-]S(=O)(=O)c2ccc(C)cc2)c1 do in these assays?
V. cholerae QS: 0

What do the screens show for `CC(C)C(NC(=O)OCc1ccccc1)C(=O)OCC(=O)N1C(C)CCCC1C` (stereo unspecified)?
V. cholerae QS: 0

The main list resumes, repeating the six entries before the break.
How did CCCC[n+]1ccn(-c2nc3ccccc3nc2[N-]S(=O)(=O)c2ccc(C)cc2)c1 do in these assays?
V. cholerae QS: 0

What do the screens show for `CC(C)C(NC(=O)OCc1ccccc1)C(=O)OCC(=O)N1C(C)CCCC1C` (stereo unspecified)?
V. cholerae QS: 0

What do the screens show for `O=C(NCCc1ccccc1)C1CCN(C(=O)c2sccc2-n2cccc2)CC1`?
V. cholerae QS: 0

What do the screens show for `O=C(CSc1nccn1-c1cccc(Cl)c1)Nc1ccc2c(c1)OCCO2`?
V. cholerae QS: 0

What do the screens show for `Nc1ccccc1C(=O)c1ccccc1`?
V. cholerae QS: 0

What do the screens show for `C=CCNC(=S)NNC(=O)c1ccccc1`?
V. cholerae QS: 0

What do the screens show for `O=c1cc(N2CCOCC2)[nH]c(=O)n1-c1ccc(Br)cc1`?
V. cholerae QS: 40

What do the screens show for `COc1ccc(OC)c(/C(O)=C/C(=O)C(=O)Nc2ccccc2OC)c1`?
V. cholerae QS: 40

Results for O=C(c1c(F)cccc1F)N1CCN(c2ncccn2)CC1 ?
V. cholerae QS: 0

How did COc1cccc2sc(Nc3nnc(-c4ccccc4Cl)o3)nc12 do in these assays?
V. cholerae QS: 0

Results for CCOC(=O)N1CCN(C(=O)c2cc3c(-c4ccc(Cl)cc4)nn(C)c3s2)CC1 ?
V. cholerae QS: 0

Results for Cc1c(C)c2c(c(C)c1O)CC[C@@](C)(CCC[C@H](C)CCC[C@H](C)CCCC(C)C)O2 ?
V. cholerae QS: 0[10 µg/mL]

What do the screens show for `CC1CCC(NC(=O)CC2Oc3ccccc3NC2=O)CC1` (stereo unspecified)?
V. cholerae QS: 0

Results for NS(=O)(=O)c1cc(C(=O)O)c(NCc2ccco2)cc1Cl ?
V. cholerae QS: 0[10 µg/mL]

What do the screens show for `OC(CCN1CCCCC1)(c1ccccc1)c1ccccc1`?
V. cholerae QS: 0[10 µg/mL]

Results for CN1C(=O)OC(C)(C)C1=O ?
V. cholerae QS: 0[10 µg/mL]

What do the screens show for `COCCOC(=O)c1[nH]c2c(c1C)C(=O)C(C(=O)OC)C(C)C2` (stereo unspecified)?
V. cholerae QS: 80

What do the screens show for `CC1Cc2ccccc2N1C(=O)CSc1nnnn1-c1ccc2c(c1)OCCO2` (stereo unspecified)?
V. cholerae QS: 240

Results for N#Cc1nc(Cc2ccccc2)oc1NCCCn1ccnc1 ?
V. cholerae QS: 0

Results for Cn1cnnc1SCc1ccc(C(=O)O)cc1 ?
V. cholerae QS: 40

How did COc1c(C)c2c(c(O)c1C/C=C(\C)CCC(=O)O)C(=O)OC2 do in these assays?
V. cholerae QS: 40[10 µg/mL]

What do the screens show for `CCOC(=O)CN1Cc2cccc(C(=O)O)c2C1=O`?
V. cholerae QS: 0

Results for CCNC(=O)COc1ccc(-c2ccccc2)cc1 ?
V. cholerae QS: 0

Results for CCOC(=O)c1oc2ccc(S(=O)(=O)n3nc(-c4ccc(C)cc4)cc3N)cc2c1C ?
V. cholerae QS: 0

How did CCOC(=O)c1[nH]c(C)c(C(=O)Nc2cccc(Cl)c2C)c1C do in these assays?
V. cholerae QS: 0

How did CCCC(C)(COC(N)=O)COC(=O)NC(C)C (stereo unspecified) do in these assays?
V. cholerae QS: 0[10 µg/mL]

What do the screens show for `COC(=O)c1nn(-c2ccccc2)c(Cl)c1/C=N/OCc1ccc(Cl)cc1Cl`?
V. cholerae QS: 40

How did CC1=C(C(=O)OC2CCCCC2)C(c2ccco2)C2=C(CC(C)(C)CC2=O)N1 (stereo unspecified) do in these assays?
V. cholerae QS: 0

Results for O=C(Nc1ccc2c(c1)OCCO2)NC1CCCCC1 ?
V. cholerae QS: 0

What do the screens show for `CCCC(=O)NCCCc1nc2ccccc2n1CCC`?
V. cholerae QS: 40

How did CS(=O)(=O)N1CCN(c2ccccc2NC(=O)c2cccnc2)CC1 do in these assays?
V. cholerae QS: 0

How did COc1ccc2c(c1)cc1n2CCN=C1NN do in these assays?
V. cholerae QS: 0

How did CC1=NS(=O)(=O)c2cc(Cl)ccc2N1 do in these assays?
V. cholerae QS: 0[10 µg/mL]

How did CCCOc1ccc(NC(=O)c2c(-c3ccccc3)noc2C)cc1 do in these assays?
V. cholerae QS: 0

How did CC(=O)c1ccc(NC(=O)C2CCN(S(=O)(=O)c3cccc4cccnc34)CC2)cc1 do in these assays?
V. cholerae QS: 40

What do the screens show for `CC(C)Oc1cccc(-c2cc(C(=O)N3CCN(S(C)(=O)=O)CC3)c3ccccc3n2)c1`?
V. cholerae QS: 0

How did CCC(C)NC(=O)CSc1nc2n[nH]c(C)c2c(=N)n1-c1ccc(OC)cc1 (stereo unspecified) do in these assays?
V. cholerae QS: 0

How did CC(C(=O)N1CCN(c2ccc(Cl)cc2)CC1)c1ncc(C(F)(F)F)cc1Cl (stereo unspecified) do in these assays?
V. cholerae QS: inconclusive

How did Cc1cccc(C(=O)CC(=O)c2cc(Cl)ccc2O)c1 do in these assays?
V. cholerae QS: 0

Results for Cc1ccc(C)c(OCCCCn2ccnc2)c1 ?
V. cholerae QS: 40

Results for CCc1c(C#N)c(SCCC(=O)Nc2ccc(OC)cc2)nc2c1C(=O)CC(C)(C)C2 ?
V. cholerae QS: 0

Results for COc1ccc(-c2ccc(SCC(=O)N3c4ccccc4CC3C)nn2)cc1OC (stereo unspecified) ?
V. cholerae QS: 0

Results for O=C(O)CCCCCNS(=O)(=O)c1cccc2nsnc12 ?
V. cholerae QS: 0

What do the screens show for `COc1cc(OC)cc(-c2cc(N)n(S(=O)(=O)Cc3ccccc3)n2)c1`?
V. cholerae QS: 40

How did CCN(CC)S(=O)(=O)c1cc(C(=O)O)c(Cl)cc1Cl do in these assays?
V. cholerae QS: 0

An excerpt. The share of hits here may be higher or lower than overall.
